Vaccinia inh = Vaccinia orthopox stage-specific inhibition | AID 1053133 | Vaccinia-infected cells, mCherry/Venus stage reporter fluorescence; stronger effect = lower value; some inactives read as strong as hits | 89,000 tested, 0.01% active | activity change (mCherry), % (no concentration beside the values);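 active = mCherry past -33% and 40 or more points under the early reporter, replicates agreeing; inconclusive = past -33% without that gap or agreement; tested in A549 cells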;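 also: scaled between vehicle wells and reference inhibitor wells; 23 nL library stock went into each well; one replicate is shown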
Vaccinia inh Venus = also measured in Vaccinia inh; calls as there; activity change (Venus), %; measured here: Venus reporter, other viral stage;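 negative = less Venus signal; first of two replicates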
* = called active by the depositor; ? = inconclusive; . = no result given; & = joins results of further samples. A portion of the library. The share of hits here may be higher or lower than overall.

SMILES | Vaccinia inh | Vaccinia inh Venus
COc1ccc(C#Cc2ccc([C@H]3[C@@H](CO)N4CCCCN(C(=O)Nc5ccccc5)C[C@H]34)cc2)cc1 | ? | .
O=C(C[C@@H]1C[C@H]2c3cc(NC(=O)NC4CCCC4)ccc3O[C@H]2[C@@H](CO)O1)NC1CCCCC1 | 12 | 2
CN1CCN(C(=O)C[C@@H]2C[C@@H]3c4cc(NS(C)(=O)=O)ccc4O[C@@H]3[C@@H](CO)O2)CC1 | 2 | 11
COc1ccc(NC(=O)N(C)C[C@H]2Oc3c(NC(=O)Nc4cccc5ccccc45)cccc3C(=O)N([C@@H](C)CO)C[C@@H]2C)cc1 | -1 | 9
C[C@@H]1CN([C@H](C)CO)C(=O)Cc2cc(NC(=O)c3ccncc3)ccc2O[C@@H]1CN(C)Cc1ccccc1 | 18 | 17
Cc1ccc(S(=O)(=O)N(C)C[C@@H]2Oc3ccc(NC(=O)Cn4cnnn4)cc3CC(=O)N([C@H](C)CO)C[C@@H]2C)cc1 | 22 | 24
C[C@H](CO)N1C[C@H](C)[C@H](CN(C)Cc2ccc(C(=O)O)cc2)Oc2c(NC(=O)c3cnccn3)cccc2C1=O | 8 | 16
O=C(CC1CC1)Nc1ccc2c(c1)[C@H]1C[C@H](CC(=O)N3CCCCC3)O[C@@H](CO)[C@H]1O2 | 12 | 7
C[C@@H]1CN([C@H](C)CO)C(=O)Cc2cc(NC(=O)Nc3ccc(F)cc3)ccc2O[C@H]1CN(C)Cc1ccc(Oc2ccccc2)cc1 | -22 | -12
CO[C@H](CN(C)Cc1nccs1)[C@@H](C)CN([C@H](C)CO)S(=O)(=O)c1ccc(C)cc1 | -2 | 3
C[C@@H]1CN([C@H](C)CO)C(=O)c2cc(NC(=O)NC3CCCCC3)ccc2O[C@H]1CN(C)C(=O)Nc1ccc2c(c1)OCO2 | 20 | 6
C[C@H]1CN([C@@H](C)CO)S(=O)(=O)c2ccc(-c3ccncc3)cc2O[C@H]1CN(C)C(=O)c1cccc(F)c1 | 23&19 | 4&4
CC(C)NC(=O)N(C)C[C@@H]1Oc2ccc(NC(=O)NC3CCCCC3)cc2CC(=O)N([C@@H](C)CO)C[C@H]1C | 1 | -2
N#C[C@@H]1N[C@@H](CO)[C@H]1c1ccc(C#Cc2ccccc2F)cc1 | 3 | 10
Cc1ccc(S(=O)(=O)N[C@@H]2CC[C@@H](CC(=O)N3CCN(c4ccccc4)CC3)O[C@@H]2CO)cc1 | -12 | -8
COCC#Cc1ccc([C@H]2[C@H]3CN(C(=O)C4CCCC4)CC(=O)N3[C@H]2CO)cc1 | 5 | 5
OC[C@@H]1[C@@H](c2ccc(C#CC3(O)CCCC3)cc2)[C@H]2CN(Cc3ccccc3F)CCCCN12 | -13 | -14
CN(C)CC(=O)N1[C@@H]2Cn3c(ccc(-c4cccnc4)c3=O)[C@H]1[C@@H](C(=O)NC1CCC1)[C@@H]2CO | -3 | 5
COc1cccc(C(=O)Nc2ccc3c(c2)C(=O)N(C)C[C@@H](OC)[C@H](C)CN(C(=O)C2CCOCC2)[C@H](C)CO3)c1 | 0 | 0
COCC(=O)Nc1ccc2c(c1)C(=O)N(C)[C@@H]1CC[C@@H](CC(=O)N3CCc4ccccc4C3)O[C@@H]1CO2 | 9 | 14
O=C(c1ccncc1)N1CC(=O)N2[C@H](C1)[C@@H](c1ccc(-c3ccccc3F)cc1)[C@@H]2CO | -4 | -12
C[C@@H]1CN([C@@H](C)CO)C(=O)c2cc(-c3ccncc3)cnc2O[C@H]1CN(C)C | -8 | -5
C[C@H](CO)N1C[C@H](C)[C@@H](CN(C)C(=O)Nc2ccc3c(c2)OCO3)Oc2ncc(-c3ccncc3)cc2C1=O | 17 | 5
O=C(Nc1cc(F)ccc1F)N[C@@H]1C=C[C@@H](CC(=O)N2CCc3ccccc3C2)O[C@H]1CO | -28 | -12
Cc1noc(C)c1S(=O)(=O)Nc1ccc2c(c1)C(=O)N([C@@H](C)CO)C[C@H](C)[C@H](CN(C)C(=O)NC(C)C)OCCCC[C@H](C)O2 | 16 | 14
Following part
SMILES | Vaccinia inh | Vaccinia inh Venus
C[C@@H]1CN([C@@H](C)CO)C(=O)c2cc(NC(=O)Nc3ccccc3)ccc2O[C@@H]1CN(C)S(=O)(=O)c1cccs1 | 1 | 14
COCC(=O)N1[C@H](CO)[C@H](c2ccccc2)C12CN(C(=O)NC1CCCCC1)C2 | 9 | 7
CC1C=NC(S(=O)(=O)N2CC[C@@H]3[C@H]2c2cc(-c4cccc(F)c4)ccc2N(C)[C@H]3CO)=N1 (some centres undefined) | -28 | -8
CN1CCN(C(=O)C2=C[C@H](c3ccc(Br)cc3)C[C@H](OCCCCO)O2)CC1 | 21 | 1
CCCNC(=O)[C@@]1(C)c2ccccc2C(=O)N(Cc2ccccc2)[C@H]1c1ccc(CO)cc1 | 22 | 8
O=C(Nc1ccccc1F)N1C[C@H]2[C@@H](c3ccccc31)[C@@H](CO)N2C(=O)C1CCCCC1 | 13 | 4
COc1ccc(S(=O)(=O)Nc2cccc3c2O[C@@H](CN(C)S(=O)(=O)c2ccc(F)cc2)[C@H](C)CN([C@H](C)CO)C3=O)cc1 | 16 | 0
C/C=C/c1ccccc1[C@H]1[C@@H](C#N)N(C(=O)NC2CCCC2)[C@H]1CO | -26 | -17
CCC(=O)Nc1ccc2c(c1)C(=O)N(C)[C@@H]1CC[C@H](CC(=O)NCc3ccc(OC)cc3)O[C@H]1CO2 | -7 | -3
C[C@@H]1CN([C@@H](C)CO)C(=O)c2cc(-c3ccncc3)cnc2O[C@@H]1CN(C)C(=O)c1ccc(F)cc1 | 9 | 9
CCC(=O)N(C)C[C@H]1Oc2ncc(C#C[C@H](C)O)cc2C(=O)N([C@H](C)CO)C[C@@H]1C | 19 | 18
Cc1ccc(S(=O)(=O)Nc2cccc3c2O[C@H](CN(C)C(=O)Nc2ccc(F)cc2)[C@H](C)CN([C@H](C)CO)C3=O)cc1 | 0 | 5
CCCNC(=O)N1CC[C@@H]2[C@H]1c1cc(C#Cc3ccc(OC)cc3)ccc1N(C)[C@@H]2CO | 4 | -6
C/C=C/c1ccc2c(c1)O[C@@H](CN(C)C(=O)C1CCCCC1)[C@H](C)CN([C@@H](C)CO)S2(=O)=O | -17 | -10
O=C(N[C@H]1CC[C@H](CCNS(=O)(=O)c2ccc(F)cc2)O[C@@H]1CO)C1CC1 | -1 | 4
O=C(Cc1ccccn1)N1CC(=O)N2[C@@H](CO)[C@H](c3ccc(C#CC4CC4)cc3)[C@@H]2C1 | 22 | 12
COc1ccc(COCC23N=C4SCc5ccccc5CN4[C@H](c4ccccc4O2)[C@H]3COC(=O)c2ccccc2)cc1 | 0 | 3
COCC(=O)N1[C@@H]2c3ccc(/C=C/c4ccccc4)c(=O)n3C[C@H]1[C@H](CO)[C@H]2C(=O)N1CCOCC1 | 7 | -4
C[C@H]1CCCCO[C@@H](CN(C)CC2CCCCC2)[C@@H](C)CN([C@@H](C)CO)C(=O)c2cc(NC(=O)Nc3ccc(F)cc3)ccc2O1 | ? | .
CCCC#Cc1ccc([C@@H]2[C@@H](CO)N3C(=O)CN(C(=O)Nc4cccc(F)c4)C[C@H]23)cc1 | ? | .
COc1ccc2c3c([nH]c2c1)[C@@H](CO)N(C(=O)Nc1c(C)noc1C)CC31CCN(CC2CC2)CC1 | 8 | 4
CCC(=O)N(C)C[C@H]1Oc2ncc(C3=CCCC3)cc2C(=O)N([C@H](C)CO)C[C@@H]1C | 21 | 16
COc1ccc2c3c(n(C)c2c1)[C@H](CO)N(C(=O)C1CCCC1)CC31CCN(C(=O)Nc2cccc(F)c2)CC1 | ? | .
O=C(Nc1ccccc1)C1=C[C@H](c2ccc(Br)cc2)C[C@H](OCc2ccc(CO)cc2)O1 | -4 | 5
CCNC(=O)C[C@@H]1CC[C@H](NC(=O)C2CCC2)[C@H](CO)O1 | 2 | 2

Next part; the last 6 above are carried over.
SMILES | Vaccinia inh | Vaccinia inh Venus
CCCC#Cc1ccc([C@@H]2[C@@H](CO)N3C(=O)CN(C(=O)Nc4cccc(F)c4)C[C@H]23)cc1 | ? | .
COc1ccc2c3c([nH]c2c1)[C@@H](CO)N(C(=O)Nc1c(C)noc1C)CC31CCN(CC2CC2)CC1 | 8 | 4
CCC(=O)N(C)C[C@H]1Oc2ncc(C3=CCCC3)cc2C(=O)N([C@H](C)CO)C[C@@H]1C | 21 | 16
COc1ccc2c3c(n(C)c2c1)[C@H](CO)N(C(=O)C1CCCC1)CC31CCN(C(=O)Nc2cccc(F)c2)CC1 | ? | .
O=C(Nc1ccccc1)C1=C[C@H](c2ccc(Br)cc2)C[C@H](OCc2ccc(CO)cc2)O1 | -4 | 5
CCNC(=O)C[C@@H]1CC[C@H](NC(=O)C2CCC2)[C@H](CO)O1 | 2 | 2
C[C@@H]1CN([C@@H](C)CO)C(=O)c2cccc(NC(=O)c3cnccn3)c2O[C@@H]1CN(C)CC1CCCCC1 | -4 | 3
CS(=O)(=O)Nc1ccc2c(c1)[C@H]1C[C@@H](CC(=O)NCC3CC3)O[C@@H](CO)[C@H]1O2 | -9 | -5
O=C(N[C@H]1CC[C@@H](CC(=O)N2CCN(c3ccccc3)CC2)O[C@@H]1CO)c1ccncc1 | 13 | 6
O=C(c1cccc(F)c1)N1CC(=O)N2[C@H](CO)[C@@H](c3ccc(-c4ccccc4F)cc3)[C@@H]2C1 | -17 | -30
CN(C)C(=O)C[C@H]1CC[C@@H]2[C@@H](COc3ccc(NS(=O)(=O)c4cccc(F)c4)cc3C(=O)N2C)O1 | 4 | -8
CN(C)C(=O)c1ccc(-c2ccccc2[C@@H]2[C@@H](C#N)N(C(=O)C3CCCCC3)[C@@H]2CO)cc1 | -4 | -4
Cc1noc(C)c1NC(=O)N(C)C[C@H]1OCCCC[C@H](C)Oc2ccc(NS(=O)(=O)c3ccc(F)cc3)cc2C(=O)N([C@@H](C)CO)C[C@H]1C | 30 | 19
COC(=O)[C@H]1[C@H](CO)[C@H]2Cn3c(ccc(-c4ccc(F)cc4)c3=O)[C@H]2N1C(=O)C1CC1 | 14 | 15
CNC[C@H]1OCc2cnnn2CCCC(=O)N([C@@H](C)CO)C[C@@H]1C | 3 | -4
COc1ccc(C#Cc2ccc([C@H]3[C@H](CO)N4C(=O)CN(C(=O)c5cccnc5)C[C@@H]34)cc2)cc1 | 4 | 3
C[C@H](NC(=O)C[C@@H]1CC[C@H](NC(=O)C2CCC2)[C@H](CO)O1)c1ccccc1 | -3 | 1
CC(C)C#Cc1ccc2c(c1)O[C@@H](CN(C)C(=O)Nc1ccccc1)[C@@H](C)CN([C@@H](C)CO)S2(=O)=O | ? | .
C/C=C/c1cnc2c(c1)C(=O)N([C@@H](C)CO)C[C@@H](C)[C@H](CN(C)Cc1cccc(C(=O)O)c1)O2 | 13 | 1
COc1ccc(S(=O)(=O)Nc2ccc3c(c2)C(=O)N([C@@H](C)CO)C[C@@H](C)[C@@H](CN(C)Cc2ccccc2)O3)cc1 | -11 | -8
COC(=O)[C@@H]1[C@@H](CO)[C@@H]2Cn3c(ccc(-c4cccnc4)c3=O)[C@@H]2N1Cc1cccc(F)c1 | -2 | 2
C[C@H](CO)N1C[C@H](C)[C@@H](CN(C)S(=O)(=O)c2ccccc2)OCc2cnnn2CCCC1=O | 19&11 | 11&9
C[C@@H]1CN([C@H](C)CO)S(=O)(=O)c2ccc(C3=CCCCC3)cc2O[C@H]1CN(C)C(=O)CN(C)C | -33 | -34
C[C@H](CO)N1C[C@H](C)[C@H](CN(C)Cc2ccncc2)Oc2ccc(NS(=O)(=O)c3cccs3)cc2C1=O | 22 | 7
Cc1nc(S(=O)(=O)N2CCN(Cc3ccc(OCCO)cc3)CC2)cn1C | 4 | 9
O=C(C[C@@H]1C=C[C@@H](NC(=O)Nc2cc(F)ccc2F)[C@@H](CO)O1)NCc1ccccn1 | -3 | 1
CNC[C@H]1Oc2cc(C#Cc3ccccc3)ccc2S(=O)(=O)N([C@@H](C)CO)C[C@@H]1C | -24 | -16
C[C@@H]1CN([C@@H](C)CO)C(=O)c2cc(-c3cccc(C#N)c3)cnc2O[C@H]1CN(C)Cc1cncnc1 | 17 | 21
O=C(Nc1ccc(Cl)cc1)N1C[C@@H]2[C@H](c3ccccc31)[C@@H](CO)N2CC1CCCC1 | ? | .
CO[C@@H]1CC[C@@H]2CCN(C)C(=O)[C@@H](C)N(C)C(=O)c3cc(C#N)ccc3OC[C@@H]1O2 | 7 | -4
COc1ccccc1NC(=O)N[C@H]1CC[C@@H](CC(=O)N2CCC(Cc3ccccc3)CC2)O[C@H]1CO | -11 | -4
CCCNC(=O)NC[C@@H]1[C@@H](c2ccc(C3=CCCC3)cc2)[C@H](CO)N1C(=O)CC | 6 | 13
C[C@@H]1CN([C@H](C)CO)C(=O)Cc2cc(N(C)C)ccc2O[C@H]1CN(C)Cc1ccc(C(=O)Nc2ccccc2N)cc1 | -19 | -17
COc1cccc(-c2cnc3c(c2)C(=O)N([C@H](C)CO)C[C@@H](C)[C@@H](CN(C)Cc2cccnc2)O3)c1 | 9 | 8
C[C@@H]1CCCCO[C@H](CN(C)CC2CCCCC2)[C@@H](C)CN([C@H](C)CO)C(=O)c2cc(NC(=O)c3ccncc3)ccc2O1 | 12 | -1

Looked up one by one from above (3):
SMILES | Vaccinia inh | Vaccinia inh Venus
C[C@H](CO)N1C[C@H](C)[C@@H](CN(C)S(=O)(=O)c2ccccc2)OCc2cnnn2CCCC1=O | 19&11 | 11&9
COc1ccc(S(=O)(=O)Nc2ccc3c(c2)C(=O)N([C@@H](C)CO)C[C@@H](C)[C@@H](CN(C)Cc2ccccc2)O3)cc1 | -11 | -8
CS(=O)(=O)Nc1ccc2c(c1)[C@H]1C[C@@H](CC(=O)NCC3CC3)O[C@@H](CO)[C@H]1O2 | -9 | -5
